# CDC25B-CDK2 inh: human CDC25B-CDK2/CyclinA binding inhibition | 0.72% of 94,000 active | z-score (test concentration not listed) | P30305+P24941 | HTRF CDC25B-CDK2/CyclinA binding, anti-His/anti-Flag; active compounds read high | AID 1259370;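 note: score is relative to mean and SD of negative controls; strong numbers were not always called active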
# HIV TAR-Tat: HIV-1 TAR-Tat binding disruption. HIV-1 TAR RNA, Tat peptide displacement FRET; active compounds read high. z-score (concentration not given with the values). 0.6% of 100,000 active. AID 1259389;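 note: score is relative to mean and SD of negative controls; some compounds called inactive have numbers as strong as hits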
# The depositor's hits bear a star; / = no result given.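 Rule for the calls: active = z-score from 3 up in half or more of its runs; inactive = the rest.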
# Sample of the layout (18 entries):
SMILES,CDC25B-CDK2 inh,HIV TAR-Tat
C=CCOc1ccc(C(=O)N(Cc2ccc(OC)cc2)C2CCS(=O)(=O)C2)cc1 (configuration not stated),0.54,1
Cc1cc(C)c(S(=O)(=O)N(C(=O)c2cccnc2)c2ccc3oc(=O)sc3c2)cc1C,-0.93,1.3
CCc1ccc(OC(C)c2nc3ccccc3[nH]2)cc1 (configuration not stated),0.7,0.35
CCn1c(SCC(=O)N2CC(C)OC(C)C2)nc2c([nH]c3ccccc32)c1=O (configuration not stated),/,0.8
O=C(c1ccc(-n2ccc3ccccc32)s1)N1CCOCC1,/,0.39
CC1CCN(c2cc(N3CCOCC3)c3c4c(onc24)-c2ccccc2C3=O)CC1,-0.72,2.3
O=C(CCC(=O)N1CCOc2ccccc21)NCc1ccccn1,-0.15,-1.1
CCC(=O)N1CCc2cc(Br)cc(S(=O)(=O)CCC(=O)N3CCC(C)CC3)c21,0.12,/
Cc1nc2sccn2c(=O)c1S(=O)(=O)Nc1ccc(C(C)C)cc1,/,-0.21
CCOC(=O)c1ccc(N2CN(Cc3ccccc3)CNC2=S)cc1,-0.74,/
Cc1[nH]nc(-c2ccc(S(=O)(=O)Nc3cccc(Br)c3)s2)c1C,/,0.09
CN1c2ccccc2-c2nc(SCC(=O)Nc3cccc(Cl)c3)ncc2S1(=O)=O,/,1.1
CC12C=CC(C)(O1)C1C(=O)N(c3cccc(C(F)(F)F)c3)C(=O)C12 (configuration not stated),-1.1,/
CC(=O)N1c2ccc(S(=O)(=O)N3CCC(C(=O)N(C)Cc4ccco4)CC3)cc2CC1C (configuration not stated),/,1.3
Cc1ccc2nc(-c3ccncc3)cc(-c3ccccc3)c2c1,-0.83,/
Cc1nc2scc(C)n2c(=O)c1S(=O)(=O)Nc1cccc(F)c1,-0.9,0.37
Cc1cc(C)n(Cc2ccccc2F)c(=O)c1C#N,-0.33,/
CCCCC(=O)Oc1c(S(=O)(=O)c2ccccc2)c(C)nn1C(C)(C)C,-1.3,1.8

# This part in full (from the top)
SMILES,CDC25B-CDK2 inh,HIV TAR-Tat
C=CCOc1ccc(C(=O)N(Cc2ccc(OC)cc2)C2CCS(=O)(=O)C2)cc1 (configuration not stated),0.54,1
Cc1cc(C)c(S(=O)(=O)N(C(=O)c2cccnc2)c2ccc3oc(=O)sc3c2)cc1C,-0.93,1.3
CCc1ccc(OC(C)c2nc3ccccc3[nH]2)cc1 (configuration not stated),0.7,0.35
CCn1c(SCC(=O)N2CC(C)OC(C)C2)nc2c([nH]c3ccccc32)c1=O (configuration not stated),/,0.8
O=C(c1ccc(-n2ccc3ccccc32)s1)N1CCOCC1,/,0.39
CC1CCN(c2cc(N3CCOCC3)c3c4c(onc24)-c2ccccc2C3=O)CC1,-0.72,2.3
O=C(CCC(=O)N1CCOc2ccccc21)NCc1ccccn1,-0.15,-1.1
CCC(=O)N1CCc2cc(Br)cc(S(=O)(=O)CCC(=O)N3CCC(C)CC3)c21,0.12,/
Cc1nc2sccn2c(=O)c1S(=O)(=O)Nc1ccc(C(C)C)cc1,/,-0.21
CCOC(=O)c1ccc(N2CN(Cc3ccccc3)CNC2=S)cc1,-0.74,/
Cc1[nH]nc(-c2ccc(S(=O)(=O)Nc3cccc(Br)c3)s2)c1C,/,0.09
CN1c2ccccc2-c2nc(SCC(=O)Nc3cccc(Cl)c3)ncc2S1(=O)=O,/,1.1
CC12C=CC(C)(O1)C1C(=O)N(c3cccc(C(F)(F)F)c3)C(=O)C12 (configuration not stated),-1.1,/
CC(=O)N1c2ccc(S(=O)(=O)N3CCC(C(=O)N(C)Cc4ccco4)CC3)cc2CC1C (configuration not stated),/,1.3
Cc1ccc2nc(-c3ccncc3)cc(-c3ccccc3)c2c1,-0.83,/
Cc1nc2scc(C)n2c(=O)c1S(=O)(=O)Nc1cccc(F)c1,-0.9,0.37
Cc1cc(C)n(Cc2ccccc2F)c(=O)c1C#N,-0.33,/
CCCCC(=O)Oc1c(S(=O)(=O)c2ccccc2)c(C)nn1C(C)(C)C,-1.3,1.8
OC1CN(C(c2ccccc2)c2ccccc2)C1,0.86,/
CCc1cccc(C)c1NS(=O)(=O)c1cc(Br)cnc1N,-1.3,1.3
CCOc1ccc2nc(Nc3nc(C)c(Cc4ccc(C)cc4)c(=O)[nH]3)nc(C)c2c1,2.5,0.91
CSc1nnc2c(n1)OC(c1cccc(Br)c1)N(C(C)=O)c1ccccc1-2 (configuration not stated),1.2,-0.05
CC(C)c1cc(C2CCCN2C(=O)c2cc(-c3ccc(F)cc3)no2)no1 (configuration not stated),/,1.6
Brc1csc(CN2CCc3nc(N4CCOCC4)ncc3C2)c1,/,0.39
Cc1c(C(=O)/C=C/N(C)C)nnn1-c1ccc(Cl)cc1Cl,-1.6,/
CCOc1ccc(-c2cnc(NCc3cc(Cl)ccc3O)n2C)cc1,-1.8,-0.25
CC(C)CC(=O)Nc1ccc(OCc2cc(=O)n3ccccc3n2)cc1,/,1.1
COc1ccccc1CNc1ncc(-c2cccc(Br)c2)n1C,-1.1,-1.2
CCCOc1ccc(Oc2nc(NCC)cc(NC(C)(C)C)n2)nn1,0.52,-3.5
COC(=O)C1=CC=C(c2ccc(OC)cc2)SC1,-1.2,/
Cc1ccc(Cl)cc1N1CCN(S(=O)(=O)c2ccc(-c3ccc(=O)[nH]n3)o2)CC1,/,1.9
O=C(Nc1cc(F)ccc1F)c1cc(CN2CCOCC2)on1,/,0.54
COc1cc2nc(SCC(=O)c3ccccc3)n3nc(C)nc3c2cc1OC,-1.3,0.45
CCOc1ccc(NS(=O)(=O)c2ccc(N3CCCCS3(=O)=O)cc2)cc1,/,-1.2
Cc1[nH][nH]c(=O)c1C(c1ccc(-c2ccc(F)cc2)o1)c1c(C)[nH][nH]c1=O,-1.5,0.12
CC1CCCCN1C(=O)CSC1=NS(=O)(=O)c2ccccc2N1 (configuration not stated),/,1.1
CCN1C(=O)C2(/C(=C(/O)c3ccc(C)cc3)C(=O)C(=O)N2CCCN2CCOCC2)c2ccccc21 (configuration not stated),1,2.2
c1ccc(C2=NN3C(C2)c2ccccc2OC3c2cccnc2)cc1 (configuration not stated),-0.3,/
Fc1ccccc1/C=C/c1nn2c(-c3ccncc3)nnc2s1,0.18,0.55
Nc1nnc(C(=O)c2ccccc2N)s1,-2.3,1.3
CCc1c(C)sc2c1CCNC2c1ccc(OC)cc1 (configuration not stated),/,1.9
O=C(CSc1nc2c(c(=O)n1-c1ccc(F)cc1)SCC2)Nc1ccc2c(c1)OCCO2,0.18,/
O=c1c(F)cn(C2CCCO2)c(=O)n1Cc1ccccc1F (configuration not stated),1.6,0.86
Cc1ccn2c(NC3CCCC3)c(-c3cccnc3)nc2c1,-2.7,2.3
O=C(C1CCCCC1)N1CCN(S(=O)(=O)c2ccc(Br)cc2)CC1,0.55,/
Cc1cc(NS(=O)(=O)c2ccc3c(c2)n(C)c(=O)c(=O)n3C)c2ccccc2n1,-0.54,0.73
NC(N)=N/N=C/C=C/c1ccccc1,-1,/
C(=C\c1ccncc1)/c1ccccc1,-0.27,/
CN1CCN(C(=O)CN2C(=O)c3cccnc3Oc3ccc(Cl)cc32)CC1,/,2
CCN(CC)c1ccc(Nc2nc(-c3ccccn3)cs2)cc1,2.1,-1.3
CCOc1cc(C2CC(=O)Nc3cc4c(cc32)OCCO4)ccc1O (configuration not stated),-0.81,0.74
COc1ccc(C2C3=C(CCCC3=O)Nc3nc(SCc4cccc(F)c4)nn32)cc1OC (configuration not stated),-0.49,0.26
CN(C(=O)Cn1ncc2c1-c1ccccc1OC2)c1ccccc1,-0.65,-0.91
Cc1cc(C)c(CSc2nccn(-c3cccc(F)c3)c2=O)c(C)c1,/,-0.66
Cc1ccc(C)c(NC(=O)C2=Cc3sc(C)c(C)c3CS2)c1,/,-6.1
Nc1oc2ncccc2c(=O)c1Br,-1.2,/
O=S(=O)(Cc1nc(-c2ccsc2)no1)c1ccc(Cl)cc1,-1,/
CCN1CCN(S(=O)(=O)c2cc3c4c(c2)CC(=O)N4CCC3)CC1,/,1.8
CC(=O)N1C(=O)N(C)C2C1N(C(C)=O)C(=O)N2C (configuration not stated),-0.76,1.1
CN(Cc1ccccc1)C(CNS(=O)(=O)c1ccccc1)c1ccccc1 (configuration not stated),2.9,0.47

# (next part)
SMILES,CDC25B-CDK2 inh,HIV TAR-Tat
Cc1nnc2c(N3CCN(c4ccccn4)CC3)nc3ccccc3n12,-0.25,0.5
CCc1cc2c(NCCc3ccccc3)ncnc2s1,/,0.54
O=C1c2cccnc2C(=O)N1Cc1ccc(S(=O)(=O)N2CCN(c3ccccc3)CC2)s1,/,0.41
O=C1c2ccccc2CN2C(=O)c3ccccc3CN12,-1.2,/
Cc1nnsc1C(=O)Oc1cccc(Br)c1,-0.1,0.99
Brc1ccc(-c2nc(N3CCCC3)c3ccccc3n2)cc1,-1.7,/
CCOC(=O)c1cc(-c2cccc([N+](=O)[O-])c2)oc1C,-4.4,/
Cc1nc2ccc(S(=O)(=O)NC(C(=O)NC3CCCCCCC3)C(C)C)cc2s1 (configuration not stated),-1.1,/
O=C(Cn1ncn2nc3c(c2c1=O)CCCC3)NCc1ccc(F)cc1,/,0.55
CCOc1ccc2nc(S/C=C/C(=O)c3ccc(Br)cc3)sc2c1,-2.5,/
NC(=O)CN1C(=O)C(O)(CC(=O)c2ccccc2)c2ccccc21 (configuration not stated),-0.12,1.1
O=[N+]([O-])c1ccc(CS(=O)(=O)c2ccco2)cc1,-1.3,/
CCOc1cc(C2OCCn3c(-c4ccc(OC)cc4)c4c(=O)n(C)c(=O)n(C)c4c32)ccc1O (configuration not stated),-1.8,1.3
Clc1ccc(Cc2nnc3sc(/C=C/c4cccs4)nn23)cc1,-1.5,1.1
Brc1ccc(Nc2nc(-c3cccnc3)cs2)cc1,-1.1,1.3
Cc1cccc(C)c1NC(=O)c1cnc(NC(C)C)cc1C(F)(F)F,-1,/
CCOc1ccc(NS(=O)(=O)c2cc(-c3ccc(=O)[nH]n3)cc(C)c2C)cc1,/,2.4
CCOC(=O)COc1ccccc1C#N,-2.1,/
CCC(=O)Nc1c(-n2cnnc2)n[nH]c1C,-1.1,0.56
CC1(C)CC(=O)C2=C(C1)NC(=O)CC2c1c(F)cccc1Cl (configuration not stated),-1.6,2.2
Cc1c(C(=O)N(Cc2ccco2)C2CCS(=O)(=O)C2)oc2ccccc12 (configuration not stated),0.86,1.5
Cc1ccc(-c2nc3c(c(SCC(N)=O)n2)Cc2cc(C)ccc2O3)cc1,-1.6,-4.7
O=C(Nc1sc2c(c1C(=O)NCc1ccco1)CCCC2)c1cc(-c2ccc(Cl)cc2)on1,2.2,1.7
CC(=O)OCc1cc(=O)n2c3c(sc2n1)CCCC3,/,1.1
CCNC(=O)c1c(NC(=O)Cc2coc3ccc(CC)cc23)sc2c1CCCC2,-0.93,-1.2
O=C(NCCO)c1cc2ccccc2c(=O)s1,-0.1,0.33
O=C1C2C3C=CC(C2C(=O)N1Cc1ccccc1)C1C(=O)N(Cc2ccccc2)C(=O)C31 (configuration not stated),-3.2,/
S=c1[nH]c(=S)c2cnc(N3CCc4ccccc43)nc2[nH]1,-0.99,/
O=C(NCc1ccco1)N1CCCN(c2nc3cc(F)ccc3n3cccc23)CC1,/,0.74
CCOC(=O)N1CCN(CC(O)COc2cc(C)ccc2C(C)C)CC1 (configuration not stated),-0.42,1.7
COc1ccc(N=Nc2cc(C)c3cc(C(C)C)ccc(C)c2-3)cc1,0.21,/
CSc1ncc(Cl)c(C(=O)N2CCN(c3cccc(Cl)c3)CC2)n1,-1.8,2.6
CCc1ccc2occ(CC(=O)Nc3nnc(SC)s3)c2c1,-0.57,1
O/N=C1/CCCc2c1nc(-c1ccccc1)n2O,-2.6,/
CCc1nnc(NC(=O)CN2C(=O)/C(=C/c3cc(OC)c(OC)c(OC)c3)SC2=S)s1,-3.3,/
Cc1ccc2nc(N3CCc4ccccc4C3)c3nncn3c2c1,-0.87,2
COc1ccc(OC)c(NC(=O)C2CC(=O)n3ncnc3N2)c1 (configuration not stated),-0.81,1.3
c1ccc(-c2nc3c4c5c(sc4ncn3n2)CCCC5)cc1,-0.88,1.2
CSc1nn(CC(=O)Nc2ccccc2F)c(N)c1S(=O)(=O)c1ccc(Cl)cc1,/,0.44
CCCCCN=C(N)NN=Cc1c[nH]c2ccc(OC)cc12,/,0.06
N#CC(C=NCc1ccccc1)=P(c1ccccc1)(c1ccccc1)c1ccccc1,-1.2,/
CC12CCC(C(=O)Nc3ccc(Cl)cc3)(OC1=O)C2(C)C (configuration not stated),-0.16,0.82
Oc1c(C(Nc2ccccn2)c2cccs2)ccc2cccnc12 (configuration not stated),-0.9,/
O=C1COc2cc(S(=O)(=O)NCCc3ccccc3)c(Cl)cc2N1,/,-3.6
Cc1ccc(CSc2nnc(CCN)o2)cc1,-2.6,-0.42
Oc1c(C(c2ccccc2)N2CCOCC2)ccc2cccnc12 (configuration not stated),0.36,/
CN1CCN(C2Cc3ccccc3Sc3ccc(Cl)cc32)CC1 (configuration not stated),-0.9,/
Cc1cccc(Nc2cc(C)nc(-n3cc([N+](=O)[O-])cn3)n2)c1,/,0.11
COc1ccc(-c2cc(C(F)(F)F)n3ncc(C(=O)N4CCCC4)c3n2)cc1,/,1.2
CCCOC(=O)C1=C(C)NC2=C(C(=O)CC(C)(C)C2)C1c1ccc(C(=O)OC)cc1 (configuration not stated),-0.59,2.1
Cc1ccc2nc3c(cc(C#N)c(=O)n3-c3ccc(Cl)cc3)c(=O)n2c1,-0.04,-3
CN1CCc2c(sc3c2C(=O)NC(c2cc(Br)ccc2OCc2ccccc2)N3)C1 (configuration not stated),-1.1,0.32
O=C1CCCC2=C1C(c1ccco1)c1c([nH]n(-c3ccccc3)c1=O)N2 (configuration not stated),-1.6,-0.33
CC1CC(C)CN(C(=O)c2nn(C)c3c2CS(=O)(=O)c2ccccc2-3)C1 (configuration not stated),-1.8,1.4
O=C(OCn1nnc2ccccc2c1=O)c1cc2ccccc2o1,-1,/
Cc1ccc2[nH]c(CSCc3ccco3)cc(=O)c2c1,/,-0.07
Cc1cc(C)c2c(=O)[nH]c(SCC(=O)c3ccc(O)c(O)c3)nc2n1,-0.31,30*
